# Source: PubChem
# Rce1 inhib – inhibitors of yeast Ras-converting enzyme; calls only; Q03530; hit rate 0.27% among 290,000; AID 2563; yeast membranes, quenched prenylated peptide cleavage fluorescence;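 active means fall in fluorescence gain of 50% or more versus controls, with final raw signal at or below 3038400; inconclusive means same 50% fall but final raw signal above 3038400; inactive means fall in fluorescence gain under 50%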;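 further: plate controls were neutral control wells for no effect and wells lacking membranes for full effect; tested at 10 µM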
# Target sequence (Q03530 whole entry, looked up): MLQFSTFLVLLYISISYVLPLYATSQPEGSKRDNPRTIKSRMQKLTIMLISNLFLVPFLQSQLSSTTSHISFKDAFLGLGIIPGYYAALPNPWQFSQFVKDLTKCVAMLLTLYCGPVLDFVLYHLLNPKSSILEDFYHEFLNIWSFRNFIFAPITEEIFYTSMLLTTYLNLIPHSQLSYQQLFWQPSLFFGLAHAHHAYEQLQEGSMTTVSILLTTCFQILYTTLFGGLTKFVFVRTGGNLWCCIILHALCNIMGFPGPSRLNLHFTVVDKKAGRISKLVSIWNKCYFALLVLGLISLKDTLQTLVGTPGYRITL
# Yeast UUG start – yeast start codon fidelity modulation. S. cerevisiae UUG-firefly luciferase reporter, luminescence/redox ratio. activity score, % at 18.7 µM. hit rate 0.13% among 350,000. AID 602363;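 active means replicate mean at a twofold rise or more, about +100% in these data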;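 further: firefly luciferase made from a UUG start codon reports start codon fidelity; reporter light over untreated wells divided by growth signal over untreated wells; some hits fall short of that in this replicate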
# Env fusion inh – inhibitors of HIV Env-mediated cell fusion. HeLa-JRFL Env/CEM21 cell fusion, luciferase. inhibition, % at 12.3 µM. hit rate 1.1% among 360,000;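 active means mean replicate inhibition score of at least 50 and every replicate individually at or above 50; inconclusive means only one of the two criteria met; inactive means mean below 50 and not all replicates reaching 50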;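 further: 0% = plate neutral controls and 100% = maraviroc near 300 nM; one replicate is shown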
# MT1-MMP act inh – inhibitors of human MT1-MMP activation; HT1080 RFP-PRO-GFP cells, GFP/RFP ratio fluorescence, overnight; percent of plate control window, DMSO zero; hit rate 0.061% among 360,000; GFP/RFP ratio change, % at 20 µM; P50281;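 active means GFP/RFP ratio change of at least 30% with cell ATP level not reduced by more than half and red fluorescence within 50% of control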; further: strong numbers were not always called active
#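 Assay system: HT1080 cells carrying an RFP-PRO-GFP reporter | Dosing: Single dose of 20 µM compound, 1% DMSO final | Incubation: Cells overnight before dosing, compound overnight, 37 °C, 5% CO2 | Evaluation: GFP/RFP fluorescence ratio | Control set: DMSO and RFP-L50D-GFP cell wells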
# eIF4H FP inh – inhibitors of RNA binding by human eIF4H; Q15056; eIF4H fluorescence polarization binding assay; inhibition, % at 35 µM; hit rate 0.94% among 290,000; AID 2012;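 active means 50% or more with normal probe brightness, or confirmed in later tests; inconclusive means above 50% with abnormal brightness, or retests that disagree; inactive means below 50% or failed in later tests; about a fifth of its hits are not listed in these tables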;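 further: calls also rest on retests at 20 µM and on dose response follow-up; 0% = protein and probe with vehicle and 100% = probe without protein; strong numbers were not always called active; many hits fall short of the cut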
# PABP polyA inh – blocks human PABP binding to poly(A) RNA. P11940. fluorescence polarization. inhibition, % at 35 µM. hit rate 1% among 290,000. AID 2014;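 active means 50% or more with normal probe brightness, or confirmed in later tests; inconclusive means above 50% with abnormal brightness, or retests that disagree; inactive means below 50% or failed in later tests; about a fifth of its hits are not listed in these tables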;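 further: calls also rest on retests at 20 µM and on dose response follow-up; controls were probe without protein and protein plus probe with vehicle; some compounds called inactive have numbers as strong as hits; many hits fall short of the cut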
# Target sequence (P11940 whole entry, looked up): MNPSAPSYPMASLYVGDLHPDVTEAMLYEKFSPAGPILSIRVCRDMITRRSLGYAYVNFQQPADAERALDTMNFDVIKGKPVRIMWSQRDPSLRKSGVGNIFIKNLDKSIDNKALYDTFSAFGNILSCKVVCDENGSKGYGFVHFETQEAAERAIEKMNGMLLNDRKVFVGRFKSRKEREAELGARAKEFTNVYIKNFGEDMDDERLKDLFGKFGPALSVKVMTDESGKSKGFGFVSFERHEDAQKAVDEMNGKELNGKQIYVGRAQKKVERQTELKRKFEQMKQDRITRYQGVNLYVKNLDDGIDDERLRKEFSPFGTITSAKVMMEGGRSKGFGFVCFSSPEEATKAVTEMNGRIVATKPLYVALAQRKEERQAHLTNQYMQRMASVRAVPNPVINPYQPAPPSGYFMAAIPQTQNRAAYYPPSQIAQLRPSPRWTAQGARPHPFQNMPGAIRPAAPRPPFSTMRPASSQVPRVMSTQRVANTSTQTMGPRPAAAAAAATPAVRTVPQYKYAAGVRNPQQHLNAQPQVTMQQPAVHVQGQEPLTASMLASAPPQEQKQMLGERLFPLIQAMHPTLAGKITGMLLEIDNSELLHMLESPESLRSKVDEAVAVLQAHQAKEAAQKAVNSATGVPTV
# CSC inhib – blocks cancer stem cells | cancer stem cell-like cells viability, luminescence | hit rate 1.1% among 300,000 | inhibition, % at 7.5 µM;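 active means mean at 75% or more and at least half the replicates too; inconclusive means mean and replicates disagree; tested in HMLE shEcad cells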;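 further: 0% = median of negative and 100% = median of positive control wells; the first replicate is given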
# eIF4H FP inh retest – also measured in eIF4H FP inh; calls as there; inhibition, %; compound at 20 µM; confirmation average;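 mean of two retest wells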
# PABP polyA inh retest – second read-out of PABP polyA inh, no call of its own (marks repeat the call); inhibition, %; compound at 20 µM; confirmation repeats;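 mean of two retest wells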
# MT1-MMP act inh RFP – also measured in MT1-MMP act inh; calls as there; RFP signal change, %; measured here: RFP expression control read;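 0 = vehicle wells; hits needed this value within 50% of zero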
# * = called active by the depositor; i = inactive; u = inconclusive; x = no result given; + = active, no number. Some of the compounds tested. The share of hits here may be higher or lower than overall.
SMILES,Rce1 inhib,Yeast UUG start,Env fusion inh,MT1-MMP act inh,MT1-MMP act inh RFP,eIF4H FP inh,PABP polyA inh,CSC inhib,others
CCOC(=O)C1=C(CC)Nc2ccccc2N=C1NC(=O)c1ccc(C)c(S(=O)(=O)N2CCOCC2)c1,x,-8,19,7,6,x,x,x,
O=C(CCS(=O)(=O)c1ccc2c(c1)NC(=O)CS2)NCCc1ccccc1,i,-6,3,-2,2,-11,3,-15,
O=C(C[n+]1cc2ccccc2c2ccccc21)c1ccccc1,+,x,x,-5,2,0,2,13,
C/C(=N/N1CCN(Cc2cccc3ccccc23)CC1)c1cccnc1,i,1,24,2,1,-4,-13,3,
O=S(=O)(N=C1C=CC(=NS(=O)(=O)c2ccccc2)c2ccccc21)c1ccccc1,x,-10,u,8,52,x,x,x,
CC1=C(c2ccccc2)C(O)(c2ccccc2)C(C)C1=O (stereo not drawn),x,-5,-20,-2,-3,x,x,x,
CC(C)CN1C(=O)C(=O)N(CC(=O)NC(C)CCc2ccccc2)C1=O (stereo not drawn),x,-8,-31,0,1,x,x,x,
Oc1ccc(Cl)cc1C1=NCCNC(C(F)(F)C(F)F)=C1,i,-26,2,-5,-4,5,4,-6,
O=C(CCCCCN1C(=O)CCC1=O)NCc1ccccc1,i,x,x,3,6,-8,4,-17,
COc1ccccc1N1CCN(C(=O)c2c(C)cc(=O)oc2C)CC1,i,-2,x,5,5,6,-8,-2,
N#CCCn1c(SCC(=O)c2c[nH]c3ccccc23)nc2ccccc21,i,-12,x,-2,0,-8,2,1,
CCOC(=O)c1cnc2nc(NCc3ccc(OC)c(OC)c3)[nH]n2c1=O,i,-9,x,1,2,1,36,-1,
CCOC(=O)C(=O)N(C)c1c(CC)nc2c(OCCC3CCCCC3)cccn12,x,-13,15,1,-1,x,x,x,
Cc1onc(-c2ccccc2Cl)c1C(=O)NCCCc1ccccc1,i,-4,4,-2,1,-5,4,2,
CCCOc1ccc(CNC(=O)Cn2c(=O)oc3ccccc32)cc1,i,-20,18,0,-7,-7,-6,3,
CSc1cccc(NC(=S)N(Cc2ccc(C)cc2)Cc2ccccn2)c1,i,x,5,-2,-2,-3,40,3,
CCOc1ccc(S(=O)(=O)NCc2ccncc2)cc1NC(=O)c1ccccc1,i,x,13,11,-28,x,x,13,
Cc1cccc(NC(=S)N2CCC(NC(=O)C3CCCCC3)CC2)c1,i,-17,-10,1,0,4,1,4,
CCCCNc1c([N+](=O)[O-])cc(C)cc1[N+](=O)[O-],i,-8,x,4,1,-7,-13,x,
O=C(NCCn1cccn1)C1CCC(=O)N(CCc2ccccc2)C1 (stereo not drawn),i,-16,7,-2,2,1,2,-12,
O=C(COC(=O)c1cc(=O)[nH]c(=O)[nH]1)Nc1cccc(S(=O)(=O)N2CCOCC2)c1,i,x,4,3,2,-4,11,-4,
COC(=O)c1[nH]c2cccc(Cl)c2c1NC(=O)CN(C)C1CCCCC1,x,-22,x,0,-4,-12,4,-5,
Cc1ccc(-n2c(COc3c(C)cccc3C)nnc2SCC(=O)Nc2nccs2)cc1,i,-27,-35,-3,-2,2,1,-3,
Cc1ccccc1S(=O)(=O)c1c(C)cc(C)n(CC(C)C)c1=O,i,-16,x,-8,0,-3,-9,-9,
CC(C)CC(NC(N)=O)C(=O)Nc1ccc2c(c1)OCO2 (stereo not drawn),i,x,3,0,3,2,3,-6,

# Carrying on.
SMILES,Rce1 inhib,Yeast UUG start,Env fusion inh,MT1-MMP act inh,MT1-MMP act inh RFP,eIF4H FP inh,PABP polyA inh,CSC inhib,others
c1ccc(-c2nc(CSc3nnc(-c4cccs4)o3)cs2)cc1,i,-10,-17,-8,-1,x,x,5,
O=C(NCc1ccc(OC(F)(F)F)cc1)C1CC(c2ccccc2C(F)(F)F)=NO1 (stereo not drawn),i,-6,-4,-1,0,-16,7,15,
Cc1ccc(Nc2nc(N)c([N+](=O)[O-])c(N3CCOCC3)n2)cc1,i,x,40,2,-1,5,24,4,
CN(Cc1ccccc1)C(=O)c1ccc(NC(=O)Cc2cccc(NC(=O)C3CCN(C(=O)C4CC4)CC3)c2)cc1,x,-30,5,4,2,x,x,9,
CCCOc1ccc(F)cc1-c1cc(C(=O)Nc2ccc(C)c(NS(C)(=O)=O)c2)[nH]n1,x,-11,-1,3,-20,x,x,x,
Cc1cc(C)nc(Nc2nc3ccccc3s2)n1,i,x,-36,0,3,-6,6,-4,
CCCCCCNC(=O)C(C(=O)OCC)C1CCCCC1 (stereo not drawn),i,-9,x,-1,-3,41,-11,-14,
CCN1CCN(C(=S)Nc2cc(S(=O)(=O)N(CC)CC)ccc2C)CC1,i,x,4,0,1,-8,4,-6,
CC(C)(C)C1CCc2c(sc3ncn(N)c(=N)c23)C1 (stereo not drawn),i,-8,-4,3,-11,-2,-1,20,
COCc1cc(C)nc2sc(C(=O)NC3CCCCC3)c(N)c12,i,0,x,0,4,-3,-2,-11,
CCCCC1CCC(/C(N)=N/O)CC1 (stereo not drawn),i,-4,-39,8,6,-10,2,x,
O=C(Nc1ccnn1C1CCN(C(=O)Cc2ccccc2F)CC1)C1CC1,i,4,-20,2,2,-4,8,-7,
O=C(O)c1c(-c2ccccc2)c(-c2ccccc2)nc2ccccc12,i,x,21,-3,-2,2,7,-9,
Cc1nc(-c2cccc(NC(=O)C3CCCCC3)c2)cs1,i,-5,-6,-1,3,-14,18,20,
Cc1ccc(C(=O)NC2CCN(CCCC(=O)c3ccc(F)cc3)CC2)cc1,i,0,14,4,3,1,-4,-5,
O=C(CSc1nc2sc3c(c2c(=O)n1-c1ccccc1)CCCC3)N/N=C/c1ccc(C(=O)O)cc1,i,-10,x,1,2,1,-6,2,
Cc1cc2cc(CCNC(=O)C(C)C)c(=O)[nH]c2cc1C,i,-13,-40,4,-1,x,x,-6,
CCc1nnc(NC(=O)CSc2nnc(-c3ccccc3O)o2)s1,i,-25,7,4,2,3,8,16,
COc1ccc(S(=O)(=O)N2CCCOC2CNC(=O)C(=O)NC2CCCC2)cc1 (stereo not drawn),i,17,-406,7,3,-7,2,6,
CCc1cc(=O)[nH]c(-n2[nH]c(-c3ccccc3)cc2=O)n1,i,x,-8,13,13,14,3,x,
O=C(/C=C/c1cccs1)Nc1ccncc1,i,x,-3,2,3,4,5,-7,
CCCCNC(=O)Nc1cc(C(=O)OC)ccc1C,i,1,x,8,8,-13,-2,x,
O=[N+]([O-])c1ccc(S(=O)(=O)NCC2CC3CCC2C3)cc1 (stereo not drawn),i,16,20,2,-5,8,1,-8,
NS(=O)(=O)c1ccc(NC(=S)NC(=O)c2cccnc2)cc1,i,x,11,-5,1,-9,8,-16,
Cc1cc(/C=C2\C(=N)N3C(SCc4ccccc4)=NSC3=NC2=O)c(C)n1Cc1ccccc1,i,-8,3,-38,-25,99,98,11,eIF4H FP inh retest=0;PABP polyA inh retest=6

# (listing goes on)
SMILES,Rce1 inhib,Yeast UUG start,Env fusion inh,MT1-MMP act inh,MT1-MMP act inh RFP,eIF4H FP inh,PABP polyA inh,CSC inhib,others
N#CC(C#N)=Cc1cnc(N2CCN(c3ccccc3)CC2)s1,i,-6,5,-6,-2,18,9,14,
Cn1c(=O)c2nc(NCc3ccccc3)sc2n(C)c1=O,x,-13,-5,3,0,x,x,x,
CC(C)C1C2=C(CC(C)(C)CC2=O)ON1c1ccccc1 (stereo not drawn),i,4,x,-5,0,-6,1,-11,
CCCCCn1c(CN2CCCCC2C)nc2c1c(=O)n(C)c(=O)n2C (stereo not drawn),i,7,-31,0,-1,6,-10,4,
O=C(c1ccc(Br)o1)N1CCN(c2ccccn2)CC1,i,-4,-44,-4,-1,4,28,-5,
O=C(Nn1nnnc1Nc1ccccc1)C12CC3CC(CC(C3)C1)C2,i,10,x,7,-5,6,5,13,
Cn1c(=O)c2c(nc(N3CCCC3)n2CC(O)CO)n(C)c1=O (stereo not drawn),i,1,6,4,3,0,1,-10,
Cc1cc(C)n(CC(C)(O)c2ccccc2)n1 (stereo not drawn),i,-12,2,0,1,x,x,-9,
CS(=O)(=O)N(CC(=O)N1CCN(Cc2ccccc2)CC1)c1ccccc1Br,i,-4,13,-1,-2,5,13,-9,
O=C(Cn1nc(C(F)(F)F)c2c1CCCC2)Nc1ccc2c(c1)OCO2,i,-4,15,0,-2,-3,-12,-4,
Cc1ccc(-c2nn(C)c(=O)c3ccccc23)cc1S(=O)(=O)NCCN1CCOCC1,i,-10,x,4,-1,8,13,-10,
C/C(=N\NC(=O)c1nnn(-c2nonc2N)c1CN1CCCCC1)c1ccccc1O,i,5,5,-3,2,-12,14,81*,
Cc1ccc(C(C)C)c(OCC(=O)Nn2c(=O)[nH]c3ccccc3c2=O)c1,i,x,7,2,2,-7,-5,7,
CC(=O)c1ccc(NC(=O)C(C)Sc2nnc3ccccn23)cc1 (stereo not drawn),x,-16,x,7,2,x,x,-16,
Cc1cnc(CNC(=O)c2ccc3sc([C@H]4C[C@H](O)[C@@H](CO)O4)nc3c2)cn1,x,-46,19,1,4,x,x,x,
Cc1onc(-c2ccccc2Cl)c1C(=O)N(C)Cc1ccccc1,i,-10,8,-3,-2,0,2,0,
COc1ccc(CNc2ccc3c(c2)CCC3)cc1OC,i,x,x,x,x,4,16,-13,
CCCCn1nnnc1C(c1cccc2ccccc12)N1CCN(C/C=C/c2ccccc2)CC1 (stereo not drawn),x,6,-23,-4,-11,x,x,x,
CC1=C(C(=O)N2CCOCC2)C(c2ccc(-c3ccccc3)cc2)NC(=S)N1 (stereo not drawn),i,-23,-2,-2,2,-4,10,5,
CCOc1ccc(C2=NNC(c3cccs3)=Nc3ccc(OC)cc32)cc1,i,-21,-37,3,4,-5,3,-10,
COc1ccc(N/C(C)=C/C(=O)c2ccccc2)cc1,i,-20,-25,0,-1,-1,-19,1,
C=CCC1(N(C(C)=O)c2ccccc2)CCCCC1,i,x,11,0,1,1,-12,1,
O=C(C1CCCN(S(=O)(=O)c2cccs2)C1)N1CCc2ccccc2C1 (stereo not drawn),i,4,x,0,-8,-1,-4,3,
O=C1N/C(=C\c2nc3ccccc3s2)c2ccccc21,i,x,x,x,x,15,6,10,
COc1ccc(/C=C(\NC(=O)c2ccc(OC)cc2)C(=O)Nc2ccccc2C(=O)O)cc1,i,-16,-5,5,5,8,7,-1,
CC(C)OCCCNS(=O)(=O)c1ccc2c(c1)oc(=O)n2C,i,-2,3,-5,6,-1,0,-14,
COP(=O)(OC)C(Nc1ccc(Cl)cc1)c1ccccc1 (stereo not drawn),i,-18,8,4,4,2,-6,-3,
COCCNC(=O)c1ccccc1NC(=O)c1ccccc1N(C)S(=O)(=O)c1ccc(C)cc1,i,8,x,0,7,2,0,-4,
Cc1ccc(N2C(=O)[C@@H]3[C@H](C2=O)C2c4ccccc4C=NN2[C@@H]3C(=O)c2ccc(Cl)cc2)cc1 (stereo partly drawn),i,x,-66,-11,-4,76,44,-4,eIF4H FP inh retest=-18;PABP polyA inh retest=6
C=CCn1c(C)cc(C(=O)COC(=O)c2n[nH]c(=O)c3ccccc23)c1C,x,-16,-158,-3,-1,x,x,-14,

# Molecules shown so far with a cyano group:
SMILES,Rce1 inhib,Yeast UUG start,Env fusion inh,MT1-MMP act inh,MT1-MMP act inh RFP,eIF4H FP inh,PABP polyA inh,CSC inhib,others
N#CCCn1c(SCC(=O)c2c[nH]c3ccccc23)nc2ccccc21,i,-12,x,-2,0,-8,2,1,
N#CC(C#N)=Cc1cnc(N2CCN(c3ccccc3)CC2)s1,i,-6,5,-6,-2,18,9,14,
